# RGS16-Gao HTS: RGS16-Galphao interaction regulator (human) | bead-based flow cytometry RGS16-Galphao binding, fluorescence; actives lie on both sides | O15492+P09471 | binding response (% of control), % at 10 µM | AID 1441 | 220,000 compounds, 0.38% hits;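 active = below 25% or above 175%, edge rows of some plates excepted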;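 also: Galphao activated by GDP with aluminum fluoride before binding; 100% = wells without compound and 0% = beads without RGS; some results beyond the cut were filed as inactive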
# Target sequence (O15492 whole entry, looked up): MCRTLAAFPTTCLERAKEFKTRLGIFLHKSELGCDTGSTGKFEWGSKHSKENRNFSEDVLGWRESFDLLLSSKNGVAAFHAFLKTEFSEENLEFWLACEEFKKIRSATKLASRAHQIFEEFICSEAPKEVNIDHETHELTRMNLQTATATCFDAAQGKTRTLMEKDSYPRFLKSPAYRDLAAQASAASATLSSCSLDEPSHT
# Target sequence (P09471 whole entry, looked up): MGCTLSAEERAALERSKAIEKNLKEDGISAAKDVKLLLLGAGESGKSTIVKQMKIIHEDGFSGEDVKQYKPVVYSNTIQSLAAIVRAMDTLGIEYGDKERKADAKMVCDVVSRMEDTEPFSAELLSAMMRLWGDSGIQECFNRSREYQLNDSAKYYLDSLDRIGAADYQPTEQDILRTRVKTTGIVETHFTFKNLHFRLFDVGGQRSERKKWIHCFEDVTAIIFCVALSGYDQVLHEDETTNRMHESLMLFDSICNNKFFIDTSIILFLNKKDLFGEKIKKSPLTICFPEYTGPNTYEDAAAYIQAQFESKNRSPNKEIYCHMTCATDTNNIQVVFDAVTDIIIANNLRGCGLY
# HSV augment: increases HSV replication in cells. HSV replication augmentation in cells, fold increase. maximum fold increase. 220,000 compounds, 0.005% hits;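 active = peak rise of 1.5-fold or more in the series; tested in PC3 cells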;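 also: first round at 10 µM; read as green reporter fluorescence; hits show the peak of a series up to 25 µM; 1 = signal of infected wells without compound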
# PKD1 kinase inh: blocks activity of human protein kinase D1. Q15139. PKD1 kinase fluorescence polarization assay. inhibition, %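 (about 10 µM by stock and volumes)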. 200,000 compounds, 0.056% hits. AID 797;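 active = inhibition of 50% or more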;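 also: controls were vehicle for no effect and a reference inhibitor for full effect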
# INS promoter inh: TRM-6 insulin promoter activity inhibition; TRM-6 cells (human fetal islet line), insulin promoter-eGFP reporter, imaging; reporter expression induced with tamoxifen; inhibition, % at 2 µM; 130,000 compounds, 0.9% hits;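 active = inhibition above the mean plus 3 SD, with well images judged a real hit on visual review, cut at about 60% in these data, passing the limit was not always enough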
# GALR2 ag: GALR2 (human) receptor agonism. AID 803. activation, %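 (tested at 5 µM)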. GALR2-expressing cells, agonist activation read-out. 140,000 compounds, 0.48% hits. O43603;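 active = above mean plus 3 SD of all compounds, about 5% in these data, not always enough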;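 also: 0% = vehicle buffer wells and 100% = reference agonist at full effect; tested in CHO reporter cells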
# Target sequence (O43603 whole entry, looked up): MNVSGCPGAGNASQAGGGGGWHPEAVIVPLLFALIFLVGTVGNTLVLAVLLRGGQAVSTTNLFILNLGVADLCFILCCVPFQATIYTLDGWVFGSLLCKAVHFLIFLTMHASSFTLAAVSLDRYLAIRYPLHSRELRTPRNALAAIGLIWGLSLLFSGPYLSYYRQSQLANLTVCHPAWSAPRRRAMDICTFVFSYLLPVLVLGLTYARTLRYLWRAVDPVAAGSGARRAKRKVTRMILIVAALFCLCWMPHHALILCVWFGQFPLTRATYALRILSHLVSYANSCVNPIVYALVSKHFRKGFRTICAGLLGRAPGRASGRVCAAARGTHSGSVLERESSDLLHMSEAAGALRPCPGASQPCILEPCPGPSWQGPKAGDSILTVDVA
# INS promoter inh cell count: recorded beside INS promoter inh, whose call it bears; normalized cell count, %; measured here: cell count, toxicity; reference of the scale not given here;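 cells exposed to compound for 48 h; stained nuclei by imaging scaled within each plate; lower means fewer cells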
# HSV augment primary fold: also measured in HSV augment; calls as there; fold increase; compound at 10 µM; measured here: primary screen fold increase 10 uM; tested in PC3 cells;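 GFP signal in the first replicate; 1 = infected wells without compound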
# * = called active by the depositor; i = inactive; nt = no result given.
SMILES,RGS16-Gao HTS,HSV augment,HSV augment primary fold,PKD1 kinase inh,INS promoter inh,INS promoter inh cell count,GALR2 ag
O=C(NCCc1ccccc1)C(=O)NCC(c1ccco1)N1CCOCC1 (stereo not given),104,i,1.1,-6,-11,120,nt
Cc1ccc(NC(=O)CN2CCC(C(=O)c3ccc(F)cc3)CC2)cc1,101,i,0.94,-9,-453,41,-3.9
COc1ccc(-c2csc(/C(C#N)=C\c3cccc([N+](=O)[O-])c3)n2)cc1,104,i,1.1,11,nt,nt,-0.1
COC(=O)c1[nH]c2ccc(Br)cc2c1NC(=O)CN1CCCCC1CCO (stereo not given),101,i,0.83,-5,-26,165,-3.5
COc1cccc(/C=N/n2c(CO)nc3ccccc32)c1OC,96,i,0.85,-2,3,124,-1.2
CCC(O)c1c(-c2ccccc2)nn(C)c1Cl (stereo not given),102,i,0.96,-3,31,91,nt
O=c1[nH]c(-c2ccc3c(c2)OCO3)nc2c1sc(=S)n2-c1ccccc1,89,i,0.94,-1,nt,nt,nt
CC(=O)N1CCCc2cc(S(=O)(=O)N(C)Cc3ccccc3)ccc21,104,i,0.55,-8,31,87,-0.7

SMILES,RGS16-Gao HTS,HSV augment,HSV augment primary fold,PKD1 kinase inh,INS promoter inh,INS promoter inh cell count,GALR2 ag
N#Cc1cnn(-c2ccccc2)c1NC(=O)CN1CCN(c2ccccc2)CC1,105,i,1,nt,nt,nt,nt
CCNS(=O)(=O)c1ccc(NS(C)(=O)=O)cc1,105,i,0.96,0,50,136,-1.6
COC(=O)CCC(=O)OC1(C)C(=O)C2=CN(CC3CC3)C(c3ccc(OC)cc3)=CC2=C(Br)C1=O (stereo not given),92,i,0.85,nt,nt,nt,nt
Cc1ccc(OCCCCNC2CCCCC2)c(C)c1,97,i,0.92,-4,-30,72,nt
O=C(NCCN1CCOCC1)c1cc(=O)[nH]c2ccc(Br)cc12,98,nt,nt,-12,nt,nt,-0.9
CCOC(=O)C1=C(C)NC(SC)=C(C#N)C1CC(C)C (stereo not given),84,i,0.67,nt,nt,nt,nt
Cc1cccc(COc2ccccc2/C=N/Nc2ccc([N+](=O)[O-])cc2)c1,92,nt,nt,1,-61,106,1.8
CCc1c(C(=O)Nc2ccc(OC)cc2)[nH]c(C)c1C(C)=O,98,i,1.1,-10,nt,nt,-2.2

SMILES,RGS16-Gao HTS,HSV augment,HSV augment primary fold,PKD1 kinase inh,INS promoter inh,INS promoter inh cell count,GALR2 ag
NC(=S)Nc1cccc2cc3ccccc3cc12,105,i,0.96,-3,nt,nt,1.6
OC(COCc1ccccc1)Cn1cnc2ccccc21 (stereo not given),95,i,0.88,3,17,117,-1.3
CCNC(=O)COc1ccc(S(=O)(=O)Nc2ccccc2)cc1,111,i,1,-6,7,66,-1.3
C/C(=N\NC(=O)C1CC1)c1cccc(NC(=O)c2cccc(Cl)c2)c1,96,i,1,2,33,113,nt
Nc1ncnc(Nc2cccc(Cl)c2Cl)n1,97,i,0.89,-7,67,150,nt
Cc1cc(OCCn2cc(/C(N)=N/O)c3ccccc32)ccc1Cl,96,i,0.79,0,-39,152,2.0
C#CCOCCOCCOCCNc1nc(N2CCN(C(=O)[C@H](CCCCN)n3cc([C@@H](N)C(C)CC)nn3)CC2)nc(N2CCN(C(=O)[C@H](Cc3cc4ccccc4[nH]3)n3cc([C@@H](N)CC(C)C)nn3)CC2)n1 (stereo not given in full),103,nt,nt,14,nt,nt,nt
Cc1c(OC(=O)c2ccc([N+](=O)[O-])cc2)c2c(c[n+]1C)COC(C)(C)OC2,101,i,1,3,11,204,-1.4

SMILES,RGS16-Gao HTS,HSV augment,HSV augment primary fold,PKD1 kinase inh,INS promoter inh,INS promoter inh cell count,GALR2 ag
CC1(C)NC(=O)N(CNc2cc(Cl)ccc2Cl)C1=O,100,i,1,-9,51,62,-2.2
Fc1ccc(N2CCN(Cc3nnc(-c4ccccc4)o3)CC2)cc1,101,i,0.99,-13,nt,nt,-1.6
Cc1cc(Cl)c(S(=O)(=O)NC(C(=O)O)C(C)C)cc1OCC(=O)NC1CCCCC1 (stereo not given),101,i,0.89,-5,-17,138,-0.6
O=C(Nc1nnc(-c2cccs2)o1)c1cccc(C(F)(F)F)c1,104,i,0.62,2,nt,nt,-2.2
COc1ccc(CCNS(=O)(=O)c2cccc3nsnc23)cc1OC,113,i,0.94,-6,nt,nt,-3.6
COc1ccccc1NC(=O)CC1SC(=N)N(c2ccccc2)C1=O (stereo not given),98,i,1.1,-2,-25,83,nt
COc1ccc(OC)c(NC(=O)CCc2c[nH]c3ccccc23)c1,101,i,0.94,1,-78,69,nt
Cc1cc([N+](=O)[O-])nn1CC(=O)NNC(=S)Nc1ccc(Cl)cc1,99,i,1,0,-23,81,-2.5

SMILES,RGS16-Gao HTS,HSV augment,HSV augment primary fold,PKD1 kinase inh,INS promoter inh,INS promoter inh cell count,GALR2 ag
Cc1ccc2nc3sc(C(=O)Nc4c(C)[nH]c(=O)[nH]c4=O)c(N)c3cc2c1,106,i,1.2,-3,nt,nt,-0.2
O=C(O)/C=C/c1cn(-c2ccccc2)nc1-c1cc2ccccc2oc1=O,98,i,1,nt,nt,nt,nt
O=C(NC1CC1)C1=C[C@@H](C2CCCCC2)C[C@@H](OCc2ccc(CO)cc2)O1,93,i,0.89,0,nt,nt,nt
O=C(Nc1ccccc1)c1cc(-c2ccccc2Cl)no1,97,i,0.89,15,-14,43,-0.5
CC(=O)Nc1cccn(Cc2c(Cl)cccc2Cl)c1=O,92,i,0.97,-4,nt,nt,nt
CCOC(=O)c1ccccc1NC(=O)c1c(O)c2ccccc2n(CC)c1=O,103,i,0.97,-11,39,134,-3.0
Cn1cnc([N+](=O)[O-])c1Nc1ccccc1O,108,i,0.98,0,-165,89,-0.9
O=C(CSc1nnc2c(n1)[nH]c1ccccc12)Nc1cccc(S(=O)(=O)N2CCOCC2)c1,103,i,1,nt,nt,nt,nt

SMILES,RGS16-Gao HTS,HSV augment,HSV augment primary fold,PKD1 kinase inh,INS promoter inh,INS promoter inh cell count,GALR2 ag
COC(=O)c1c(C)[nH]c(C(=O)OCC(=O)NCC(C)C)c1C,92,i,0.85,0,9,78,-2.9
CN(C)c1nc(-c2ccccc2)nc(-c2ccc(Cl)cc2)c1C#N,100,i,0.9,3,4,157,-1.2
O=C(OCc1ccccc1Cl)c1ccc(-n2cnnc2)cc1,100,i,1.1,-3,25,90,0.3
O=C(CN1CCN(Cc2ccc3c(c2)OCO3)CC1)Nc1ccc2c(c1)OCO2,103,i,0.87,-1,-40,117,-2.6
Cc1c(Br)c(C(N)=O)nn1C,116,i,1.1,-11,-16,54,-0.3
COc1ccc(Br)cc1/C=C\C(=O)NCc1cccnc1,105,i,0.92,5,-23,130,nt
O=C(NCCN1CCCCCC1)C1CCN(S(=O)(=O)N2CCOCC2)CC1,100,i,1.1,-17,nt,nt,-1.0
CC(C)C(=O)NN1c2ccccc2CCc2ccccc21,96,i,1,nt,nt,nt,nt

SMILES,RGS16-Gao HTS,HSV augment,HSV augment primary fold,PKD1 kinase inh,INS promoter inh,INS promoter inh cell count,GALR2 ag
COP(=O)(OC)c1nc(-c2cccc3ccccc23)oc1N1CCOCC1,94,i,1,-1,-36,82,1.7
C=CCNC(=O)c1c(N)n(-c2ccc3c(c2)OCO3)c2nc3ccccc3nc12,106,i,0.85,-3,nt,nt,1.1
O=c1c2[nH]c3ccccc3c2ncn1Cc1ccccn1,104,nt,nt,9,15,134,-2.9
COC(=O)c1cn(-c2ccc(F)cc2)c(=O)c2ccccc12,99,i,0.89,-7,nt,nt,nt
CCOc1cc(S(=O)(=O)n2cnc(C)c2)ccc1Cl,102,i,1.1,-2,33,79,nt
COc1ccc(CCNC(=O)c2ccc(N3CCCC3=O)cc2)cc1OC,105,i,0.89,-2,0,64,0.6
COc1ccc(-c2cc(Nc3ccccc3NC(=O)C(F)(F)F)n(CCC#N)n2)cc1,102,i,0.83,3,60*,194*,-1.2
Cc1cc(C)nc(N2CCC(C(=O)NNC(=O)Cc3ccccc3)CC2)n1,103,i,0.99,nt,nt,nt,nt

SMILES,RGS16-Gao HTS,HSV augment,HSV augment primary fold,PKD1 kinase inh,INS promoter inh,INS promoter inh cell count,GALR2 ag
O=C(CCl)NC(=O)NC12CC3CC(CC(C3)C1)C2,111,i,1,-5,58,94,-0.9
NC(=S)n1[nH]c(-c2ccc([N+](=O)[O-])cc2)c(N=Nc2ccc(O)cc2)c1=O,98,nt,nt,5,-23,162,1.1
O=C(COC(=O)c1cncc(Br)c1)NC1CC1,98,i,0.93,-3,-54,116,-1.0
CC1CCc2c(sc(/N=C/N(C)C)c2C#N)C1 (stereo not given),106,i,1.1,-15,nt,nt,nt
Cc1ccc(C)c2[nH]c(=O)c(CN(CC3CCCO3)C(=O)NC3CCCCC3)cc12 (stereo not given),102,i,0.8,5,nt,nt,-1.3
Cc1ccc(N=C2c3ccccc3C(=O)C2[N+](=O)[O-])cc1C (stereo not given),71,i,0.88,-3,-53,46,nt
CCn1c(=O)c2cc(C(=O)N3CCCC3)sc2c2ccccc21,109,nt,nt,5,nt,nt,nt
C/C(=N/NC(=O)C1COc2ccccc2O1)c1ccco1 (stereo not given),102,i,0.97,-6,nt,nt,1.2

SMILES,RGS16-Gao HTS,HSV augment,HSV augment primary fold,PKD1 kinase inh,INS promoter inh,INS promoter inh cell count,GALR2 ag
Cc1c(C)c(C)c(CN2CCSCC2)c(C)c1C,100,i,1.2,nt,nt,nt,nt
COc1ccccc1NC(=O)CCc1nc2ccccc2s1,102,i,0.98,-1,nt,nt,nt
CC1(C)CC(=O)C(C=NCCCn2ccnc2)=C(O)C1,102,i,0.93,6,nt,nt,-1.4
CC1CN(CCC(=O)Nc2ccc3c(c2)CCC3)CC(C)O1 (stereo not given),113,i,0.9,9,42,94,-1.8
CC1(C)C2([N+](=O)[O-])CN3CC1([N+](=O)[O-])CN(C2)C3c1ccccc1 (stereo not given),112,i,0.85,-5,nt,nt,-2.2
Cc1ccc(-c2ccc(SCC(=O)c3ccccc3)nn2)cc1,107,i,1,1,nt,nt,0.9
CCCCOC(=O)c1ccc(NC(=O)Nc2ccc(OC)c(OC)c2)cc1,103,i,0.89,-1,47,112,-1.2
Cc1scc(C(=O)NNC(=S)NCC2CCCO2)c1C (stereo not given),104,i,1.1,0,-41,71,1.2

SMILES,RGS16-Gao HTS,HSV augment,HSV augment primary fold,PKD1 kinase inh,INS promoter inh,INS promoter inh cell count,GALR2 ag
COCCCNC(=S)NNC(=S)Nc1ccc(OC)cc1,101,i,1,nt,nt,nt,nt
Cc1cc(C(=O)NCCc2ccccc2)ccc1[N+](=O)[O-],76,i,1.2,9,-88,135,-2.8
Cc1ccc(C)c(NS(=O)(=O)c2cc(C(=O)NCc3ccccn3)ccc2Cl)c1,112,i,1.1,6,-24,99,-1.3
Cc1ccccc1NC(=O)CN1C(=O)NC(C)(c2ccc3c(c2)OCO3)C1=O (stereo not given),100,i,1,-4,0,139,-1.1
COc1ccc(-n2ccnc2SCC(=O)NCc2ccc(F)cc2)c(OC)c1,96,i,0.98,-2,nt,nt,nt
COc1ccc(CCNC(=O)c2csc3c2CCCC3)cc1,99,i,0.87,0,-33,95,nt
CCC(C(=O)NC1CCCC1)N(C(=O)c1snc(C(N)=O)c1N)c1ccc2c(c1)OCCO2 (stereo not given),112,i,0.86,-8,6,91,-1.8
COc1cc2c(=O)nc3n(c2cc1OC)C(c1ccccc1)N=C(N)N3 (stereo not given),94,i,0.94,-5,-11,120,0.3

# 4 of these compounds, set out differently.
# The line under a structure holds: RGS16-Gao HTS | HSV augment | HSV augment primary fold | PKD1 kinase inh | INS promoter inh | INS promoter inh cell count | GALR2 ag
O=C(NC1CC1)C1=C[C@@H](C2CCCCC2)C[C@@H](OCc2ccc(CO)cc2)O1
    93 | i | 0.89 | 0 | nt | nt | nt
O=C(Nc1ccccc1)c1cc(-c2ccccc2Cl)no1
    97 | i | 0.89 | 15 | -14 | 43 | -0.5
CC(=O)Nc1cccn(Cc2c(Cl)cccc2Cl)c1=O
    92 | i | 0.97 | -4 | nt | nt | nt
CCOC(=O)c1ccccc1NC(=O)c1c(O)c2ccccc2n(CC)c1=O
    103 | i | 0.97 | -11 | 39 | 134 | -3.0

# Later entries.
SMILES,RGS16-Gao HTS,HSV augment,HSV augment primary fold,PKD1 kinase inh,INS promoter inh,INS promoter inh cell count,GALR2 ag
CCCCn1c(=O)c(CCC(=O)OCC(=O)NC(=O)NCCOC)nc2ccccc21,104,i,0.99,-7,-41,102,nt
O=C(c1ccc(Cl)cc1)c1cnc(-c2ccccc2)s1,87,i,0.86,-1,17,148,-1.3
COCCn1c(=NC(=O)c2cc3ccccc3oc2=O)sc2cc(S(N)(=O)=O)ccc21,98,i,0.94,-5,-16,114,-0.7
COc1cccc(C=Nc2ccc(C)c(F)c2)c1O,85,i,1,1,10,52,-0.5

# Assay outcomes as filed in PubChem BioAssay.

# Hits appear at their usual frequency; 1.2% or so of the library scored in one or more.
